Screening data (PubChem BioAssay)
AID923: qHTS Assay for Allosteric/Competitive Inhibitors of Caspase-1: Spectroscopic Profiling in AFC Spectral Region | compound fluorescence, AFC spectral region (405/520 nm); almost no hit is shown here | Potency, µM (series often up to 57.5 µM), without a hit: at the highest dose fluorescence increase, hits mostly activators | 1.1% of 75,000 active | AID 923, 2007; active = well fitted activation curve with a large enough effect; inconclusive = small, poorly fitted or top-dose-only effect;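 also: potency is read from the fitted curve at half-maximal effect; 0% is about no effect; scaled to a free AFC standard on each plate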
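Compound autofluorescence profiled at 405 nm ex/520 nm em during kinetic caspase 1 run (50 nM enzyme, 5 uM Ac-WEHD-AFC, HEPES pH 7.5, 10 mM DTT). Titration up to 57 uM; baseline from regression intercept, normalized to AFC standard curve.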
A647 fluor: compound fluoresces in the A647 spectral region; Compound fluorescence, A647 channel (570/671 nm), Tris buffer; max dye-equivalent concentration, M; 59,000 tested, under 10 active; active means above 1 µM dye equivalent; inconclusive means 0.1 to 1 µM; inactive means 0.1 µM or less;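 also: values scaled relative to a standard on each plate; highest value over a series up to 38 µM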
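Fluorescence read (570 nm ex, 671 nm em) after 15 min RT incubation of compounds in 100 mM Tris buffer, pH 8.0; values expressed as dye-equivalent concentration against a six-point A647 standard series on each plate.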
A488 autofl: A488 region autofluorescence; compound autofluorescence, A488 spectral region, dye equivalency; active compounds read high; max dye equivalency, M; AID 591; 0.1% of 59,000 active; active = above 10 nM dye equivalent; inconclusive = 1 to 10 nM; inactive = 1 nM or less; about half of its hits are not listed in these tables;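 also: highest value over a series up to 38 µM; compound alone in buffer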
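Read-out: relative fluorescence at 480/540 nm, expressed as Alexa 488 dye-equivalent concentration from a six-point A488 standard included per plate. Conditions: 100 mM Tris, pH 8.0; 15 min incubation, room temperature.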
Resorufin fluor: compounds fluorescent in resorufin spectral region | Compound fluorescence, resorufin region 547/598 nm, buffer; active compounds read high | max dye-equivalent concentration, M | 0.04% of 59,000 active | AID 588; active = above 10 nM dye equivalent; inconclusive = 1 to 10 nM; inactive = 1 nM or less; a few of its hits are not listed in these tables; also: highest value over a series up to 38 µM
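Intrinsic fluorescence profiled in the resorufin window (ex 547 nm, em 598 nm) after 15 min at room temperature in pH 8.0 Tris buffer (100 mM); responses normalized against a six-point resorufin standard series as dye-equivalent concentration.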
TSHR ag: activates the human thyroid stimulating hormone receptor. HEK293-CNG-TSHR cells (CNG channel as cAMP sensor), membrane potential dye, cAMP. Potency, µM (highest dose often 57.1 µM), for the others: top-dose activation, usual class: activators. 0.48% of 73,000 active. AID 926; active = well fitted activation curve of enough size with the parental cells flat; inconclusive = any curve in the parental cells; inactive = parental cells flat and receptor cells flat or falling; also: potency is read from the fitted curve at half-maximal effect; % of control where 0% means no effect; weak receptor curves with flat parental cells got no call and are not listed
Target sequence (P16473 whole entry, looked up): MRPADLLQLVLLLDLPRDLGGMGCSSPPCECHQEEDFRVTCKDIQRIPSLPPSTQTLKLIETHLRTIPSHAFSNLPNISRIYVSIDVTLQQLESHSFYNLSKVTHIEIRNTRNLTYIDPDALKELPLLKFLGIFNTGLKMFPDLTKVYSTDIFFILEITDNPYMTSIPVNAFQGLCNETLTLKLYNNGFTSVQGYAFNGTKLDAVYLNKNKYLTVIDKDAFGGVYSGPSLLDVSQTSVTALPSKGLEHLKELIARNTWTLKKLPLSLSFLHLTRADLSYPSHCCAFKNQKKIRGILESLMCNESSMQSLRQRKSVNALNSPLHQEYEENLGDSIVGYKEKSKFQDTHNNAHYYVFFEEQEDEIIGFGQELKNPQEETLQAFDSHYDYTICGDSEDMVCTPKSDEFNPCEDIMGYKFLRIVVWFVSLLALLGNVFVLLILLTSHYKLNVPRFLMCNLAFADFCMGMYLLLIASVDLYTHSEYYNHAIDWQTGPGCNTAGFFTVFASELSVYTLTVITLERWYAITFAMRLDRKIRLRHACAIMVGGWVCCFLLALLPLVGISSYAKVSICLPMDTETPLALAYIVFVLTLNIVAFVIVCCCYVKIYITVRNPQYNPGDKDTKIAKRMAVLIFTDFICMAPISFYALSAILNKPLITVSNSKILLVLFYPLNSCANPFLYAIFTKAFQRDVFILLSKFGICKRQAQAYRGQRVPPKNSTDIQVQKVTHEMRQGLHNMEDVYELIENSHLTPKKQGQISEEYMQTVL
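HEK 293 cells stably expressing TSHR and a cAMP-gated CNG channel; parental CNG-only cells as counterscreen. Cells preloaded 60 min with membrane potential dye plus 100 uM RO 20-1724, then compound 30 min; fluorescence read at 590 nm.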
* marks the source's active call; other numbers are inactive results; i = inactive; ? = inconclusive; · = no result given; [ ] = another dose, or the depositor's remark. Some of the compounds tested; count on the stated rates, not on these rows.

SMILES	AID923	A647 fluor	A488 autofl	Resorufin fluor	TSHR ag
COc1cc(NC(=O)c2ccccc2)c(OC)cc1NC(=O)CN1CCN(c2ccccn2)CC1	-2.4%	·	·	·	-4%
CCS(=O)(=O)CCSc1nc(C)cc(C)n1	0.3%	4.2e-08	i	i	2%
COc1ccc(C(=O)CSc2nnc(-c3cc4ccccc4cc3O)n2Cc2ccco2)cc1	1.7%	1.1e-08	i	i	?
CCCCCCCCN[C@@H](C)[C@H](O)c1ccc(SC(C)C)cc1	2.4%[25.7 µM]	7.4e-09	i	i	?
Cc1cccc(NC(=O)CN(C)S(=O)(=O)c2cnc[nH]2)c1	0.2%	2.8e-08	i	i	8%
COc1ccccc1NC(=O)N1CCCC(c2nc3c(nnn3Cc3ccc(C)cc3)c(=O)[nH]2)C1 (centres undefined)	-2.0%	1e-09	i	i	8%
COc1ccc2[nH]c(C)c(CN3CCCCC3)c(=O)c2c1	-0.3%	2.5e-08	i	i	0%[11.4 µM]
O=C(Oc1ccc(Br)cc1)C1CC(=O)N(c2ccc(F)cc2)C1 (centres undefined)	-2.2%	8.7e-09	i	i	3%
CCOc1ccc(CC(=O)Nc2c(C(N)=O)oc3ccc(Br)cc23)cc1OCC	-0.1%	·	·	·	-7%
Cn1c(SCC(=O)NCc2ccc3c(c2)OCO3)nnc1-c1cc2ccccc2cc1O	1.5%	4.9e-08	i	i	11%

3 entries out of the list above, arranged by their value in A647 fluor, rising.
SMILES	A647 fluor
CCCCCCCCN[C@@H](C)[C@H](O)c1ccc(SC(C)C)cc1	7.4e-09
O=C(Oc1ccc(Br)cc1)C1CC(=O)N(c2ccc(F)cc2)C1 (centres undefined)	8.7e-09
Cc1cccc(NC(=O)CN(C)S(=O)(=O)c2cnc[nH]2)c1	2.8e-08

(further entries)
SMILES	AID923	A647 fluor	A488 autofl	Resorufin fluor	TSHR ag
CCOc1ccccc1C(=O)Nc1cc(OC)ccc1OC	7.6%	·	·	·	?
CN1CCN(S(=O)(=O)c2ccc(NC(=O)Nc3cccc(Cl)c3)cc2)CC1	-0.1%	2.2e-09	i	i	-14%
O=C(NCCc1csc(-c2cccnc2)n1)c1ccc(Br)o1	-4.4%	·	·	·	-10%
Cc1ccc(-c2ccc(C(=O)O)[nH]2)cc1	1.8%	3.3e-09	i	i	25%
COCCN(CCOC)c1ncnc2c1cnn2-c1ccc(Cl)cc1	-1.4%	2.5e-09	i	i	-1%
COC(=O)[C@@H](NC(=O)NCc1ccco1)C(C)C	1.8%	1e-09	i	i	-1%
COc1ccc(CCNC(=O)CC2Oc3ccc(Cl)cc3NC2=O)cc1OC (centres undefined)	3.8%	·	·	·	?
CC(=O)C1=C(C)NC(C)=C(C(C)=O)C1c1cccs1	4.5%	·	·	·	0%
CCN(C(=O)c1cn(C)c(=O)c2cc(OC)c(OC)cc12)c1cc(OC)ccc1OC	-0.6%	7e-09	i	i	-4%[11.4 µM]
Cc1cnc(CNc2cc(-c3c(C)noc3C)ncn2)cn1	0.6%	4.6e-08	i	i	?
CC(NC(=O)CSc1ncccn1)c1ccccc1 (centres undefined)	1.6%	1.1e-09	i	i	-3%
CCC(C(=O)NCc1ccc(F)cc1)N(Cc1ccco1)C(=O)c1snc(C(N)=O)c1N (centres undefined)	0.2%	3.1e-08	i	i	?
Cc1ccc(C(=O)N2c3ccc(F)cc3CCC2C)o1 (centres undefined)	1.3%	1e-09	i	i	2%
O=S(=O)(NCC1CCCO1)c1ccc2ccccc2c1 (centres undefined)	0.7%	·	·	·	6%
C=CCn1c(=S)[nH]c2ccccc2c1=O	·	1e-09	i	i	·
CCOc1ccccc1C(=O)N(CN1CCCC1=O)c1cccc(Cl)c1	1.8%	3.1e-08	i	i	6%
COCC(C)NC(=O)C1CC(=O)N(c2ccc(C)cc2)C1 (centres undefined)	-0.1%	3.7e-08	i	i	-6%
CN1CCN(S(=O)C23CC4CC(CC(C4)C2)C3)CC1 (centres undefined)	0.0%	1e-09	i	i	-2%
CC1CCN(C(=S)c2ccccc2O)CC1	0.5%	1e-09	i	i	-3%
CCOC(=O)C1=C(CSc2nc3c(cc2C#N)CCC3)OC(N)=C(C#N)C1c1ccccc1 (centres undefined)	·	?	i	i	·
COc1cccc(NC(=O)CN2C(=O)COc3ccc(Cl)cc32)c1	1.2%	·	·	·	13%
CCCn1nc(CC(=O)O)c2ccccc2c1=O	1.7%	1e-09	i	i	3%
Nc1cc(S(N)(=O)=O)ccc1SSc1ccc(S(N)(=O)=O)cc1N	-1.6%[11.5 µM]	1e-09	i	i	6%[11.4 µM]
Cc1nn(-c2ccccc2)c2sc(C(=O)NC3CCCCC3)cc12	-4.0%	2.7e-08	i	i	?
Cc1ccc(S(=O)(=O)NCCC(=O)NCCN2CCCCCC2)cc1	-0.6%	4.6e-09	i	i	-2%
Cc1ccc(/C(O)=C2/C(=O)C(=O)N(CCCn3ccnc3)C2c2cccnc2)cc1 (centres undefined)	2.3%	·	·	·	-4%
Cc1ccc(C)c(C(=O)CSc2n[nH]c(-c3ccncc3)n2)c1	-0.8%	1e-09	i	i	18%
C=CCn1c(SCC(=O)c2ccc(OC)cc2)nnc1C(C)NC(=O)c1cccs1 (centres undefined)	0.5%	2.5e-09	i	i	2%
COC(=O)c1nc(-c2ccccc2)n[nH]1	-1.0%	3.8e-09	i	i	-6%
COc1cc(OC)c(NC2=NCCCCC2)cc1Cl	-1.9%	2.8e-08	i	i	·

A few values from the entries so far.
Cc1ccc(/C(O)=C2/C(=O)C(=O)N(CCCn3ccnc3)C2c2cccnc2)cc1 (centres undefined) in AID923 has 2.3%
Cc1ccc(C)c(C(=O)CSc2n[nH]c(-c3ccncc3)n2)c1 in TSHR ag has 18%

Continued.
SMILES	AID923	A647 fluor	A488 autofl	Resorufin fluor	TSHR ag
O=C(/C=C/N1CCOCC1)c1ccc(-c2ccccc2)cc1	3.2%	·	·	·	20%
CCOC(=O)c1[nH]c(C)c(/C(O)=C2\C(=O)C(=O)N(CCN(C)C)C2c2ccncc2)c1C (centres undefined)	-0.2%	1e-09	i	i	4%
O=C1c2cccnc2C(=O)N1Cc1ccc2c(c1)OCO2	-1.4%	1.7e-08	i	i	13%
Cc1ccccc1NC(=O)CCN1CCCCCC1	1.2%	1e-09	i	i	-11%
Cc1ccc(C2NC(=O)NC(O)(C(F)(F)F)C2C(=O)c2cccs2)o1 (centres undefined)	1.2%	1e-09	i	i	2%
COC(=O)c1cc(CSc2nnc(NC3CCCCC3)s2)oc1C	1.6%	2.1e-08	i	i	?
COC(=O)CCC(=O)Nc1sc(C)c(C)c1C(N)=O	-1.3%	3.2e-09	i	i	-1%
Cc1noc(C)c1CSc1nnc2n(-c3ccccc3)c(=O)c3ccccc3n12	-1.1%	2.2e-08	i	i	7%
NC(=O)CN1C(=O)C(O)(CC(=O)c2ccccc2O)c2ccccc21 (centres undefined)	2.0%	·	·	·	-13%
O=S(=O)(Nc1ccncc1)c1ccccc1	-0.7%	1e-09	i	i	3%

Part of the list above, comma-delimited.
molecule,AID923,A647 fluor,A488 autofl,Resorufin fluor,TSHR ag
O=C1c2cccnc2C(=O)N1Cc1ccc2c(c1)OCO2,-1.4%,1.7e-08,i,i,13%
Cc1ccccc1NC(=O)CCN1CCCCCC1,1.2%,1e-09,i,i,-11%
Cc1ccc(C2NC(=O)NC(O)(C(F)(F)F)C2C(=O)c2cccs2)o1 (centres undefined),1.2%,1e-09,i,i,2%
COC(=O)c1cc(CSc2nnc(NC3CCCCC3)s2)oc1C,1.6%,2.1e-08,i,i,?
COC(=O)CCC(=O)Nc1sc(C)c(C)c1C(N)=O,-1.3%,3.2e-09,i,i,-1%

Other compounds.
SMILES	AID923	A647 fluor	A488 autofl	Resorufin fluor	TSHR ag
CCCCOc1ccc(CNn2c(C)nc3ccccc3c2=O)cc1	0.3%	1.4e-08	i	i	30%
COc1ccc(NC(=O)CCN2CCCCCC2)c(OC)c1	-0.1%	2.9e-09	i	i	?
CC1(C)N=C(/C=N/O)C=[N+]1[O-]	-1.3%	2.2e-08	i	i	3%
CCOc1cccc(/C(O)=C2/C(=O)C(=O)N(CCN3CCOCC3)C2c2cccnc2)c1 (centres undefined)	-0.1%	3.9e-09	i	i	-3%
Cc1noc(C)c1S(=O)(=O)N1CCC(C(=O)N2CCC(N3CCCCC3)CC2)CC1	-0.5%	·	·	·	-2%
Cc1cccc(NC(=O)Cn2nnc(-c3cccs3)n2)c1C	0.2%	2.1e-09	i	i	?
CC(=O)c1c(C)[nH]c(C(=O)Nc2ccc(C)cn2)c1C	3.7%	4.7e-09	i	i	-4%
Nc1cc(N)nc(SCC(=O)NCC2CCCO2)n1 (centres undefined)	0.8%	1e-09	i	i	1%
Cc1cc(C(=O)OCC(=O)N2CCc3ccccc32)c(C)o1	-1.1%	1.1e-08	i	i	-6%
COc1ccc(-n2c(=O)cc(N3CCc4ccccc43)[nH]c2=O)cc1	-0.3%	1e-09	i	i	?
CCOC(=O)Nc1ccc(NS(=O)(=O)c2ccc(C)cc2)cc1	-0.5%	4.7e-08	i	i	11%
O=C(Nc1scc(-c2cccs2)c1C(=O)O)c1cccs1	0.6%	·	·	·	16%
COc1cccc(NC(=O)CSc2nc3c(c(=O)n2C)SC(C)C3)c1 (centres undefined)	-4.2%	·	·	·	30%
COCCCn1c(SCC(=O)Nc2cccc(C(=O)OC)c2)nnc1-c1ccncc1	1.4%	4.4e-08	i	i	12%
CCOC(=O)C(O)(NC(=O)c1cccnc1)C(F)(F)F (centres undefined)	-2.2%	1.2e-09	i	i	6%
CCC(C)(C)NC(=O)c1ccc2c(c1)N(CC(=O)OC)C(=O)C(C)(C)O2	1.4%	4.4e-09	i	i	2%
CC1(C)Oc2ccc3ccc(=O)oc3c2C(N2CCCCC2)C1O (centres undefined)	0.5%	·	·	·	?
COc1ccccc1OCC(=O)Nc1nnc(-c2ccco2)s1	-1.5%	2e-09	i	i	-1%
O=C(NC1(C(F)(F)F)Oc2ccccc2O1)N1CCCC1	1.2%	1e-09	i	i	-3%
CN1CCCCCC1=Nc1ccccc1C#N	1.4%	3e-08	i	i	7%[11.4 µM]
C=CCn1c(N)cc(=O)nc1SCC(=O)N1CCN(c2ccc(F)cc2)CC1	-0.8%	1.9e-09	i	i	-1%
CC(C)CC(c1nnnn1CC1CCCO1)N1CCN(Cc2ccc3c(c2)OCO3)CC1 (centres undefined)	-0.9%	1.9e-08	i	i	4%
COC(=O)c1[nH]c2ccc(F)cc2c1NC(=O)CCN1CCN(C(=O)c2ccco2)CC1	0.3%	1.9e-08	i	i	4%
CCCCCCN(C(=O)CCCCCN1C(=O)NC(c2ccc([N+](=O)[O-])cc2)C(C(=O)OCc2ccccc2)=C1C)C(C(=O)NCCCC)c1ccc(OCC(=O)OC)c(C(=O)OC)c1 (centres undefined)	9.6%	·	·	·	0%
Cc1ccc(Cl)cc1N1CCN(S(=O)(=O)c2cccc(S(=O)(=O)N3CCCC3)c2)CC1	1.2%	2.9e-08	i	i	?
Clc1ccc(-c2nn3c(-c4cccc(Cl)c4)nnc3s2)cc1	·	5.9e-09	i	i	·
CCSC1=C(C#N)C(=O)n2c1cc1c2CCCC1	4.6%	1e-09	i	i	?
COc1cccc([C@H]2Oc3ccc(OC)cc3/C(=N\OC[C@@H](O)[C@@H]3O[C@@H]4OC(C)(C)O[C@@H]4[C@H]3O)[C@@H]2O)c1	4.2%[11.5 µM]	·	·	·	-8%[11.4 µM]
CN=C1SC(CC(=O)Nc2sc3c(c2C#N)CCCC3)C(=O)N1C (centres undefined)	1.5%	2.5e-08	i	i	-2%
CCN1C(=O)C(Cc2nc3ccccc3c(=O)n2C)c2ccccc21 (centres undefined)	0.9%	·	·	·	9%
Cc1ccc2cc(-c3noc(C4CCCO4)n3)c(=O)[nH]c2c1 (centres undefined)	0.3%	·	·	·	2%
N#CC(c1nc2ccccc2nc1N1CCCCC1)S(=O)(=O)c1ccc(Cl)cc1 (centres undefined)	11%	1e-09	i	i	0%
